High-throughput results deposited in PubChem by National Center for Advancing Translational Sciences (NCATS).
Rango release inh: prevents RanGTP from dissociating the Rango-importin beta complex | O95149+P62826 | Biochemical FRET Rango-importin beta, RanGTP-induced dissociation | Potency, µM (highest dose often 46.1 µM), for inactives: at the top dose activity change, negative = inhibition | actives 0.071% (n = 340,000); active means falling FRET ratio curve, often poorly fitted, with flat reads before Ran was added; inconclusive means other falling curves, or compound fluorescence or quenching; inactive means flat or rising ratio curve;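 also: potency is read from the fitted curve at half-maximal effect; % of control where 0% means no effect; nearly all actives have a fitted effect of over 45% in size; -100% = wells without RanGTP and RCC1; the record marks most hits as doubtful in a second field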
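Rango FRET biosensor (snurportin-1 IBB flanked by N-terminal EYFP and C-terminal CFP10) at 0.1 uM, with 0.25 uM importin beta in PBS, 1mM DTT, 0.02% Tween-20, 0.1% BSA. 0.6 uM Ran, 2mM GTP and 0.2 uM RCC1 were then added for 45 min at room temperature. Inhibition read as loss of FRET rise.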
Rango complex inh: inhibitors of Rango-importin beta complex formation; Rango CFP/YFP FRET sensor + importin beta, 45 min; AID 540263; Potency, µM (doses to about 92.2 µM), for inactives: top-dose inhibition of complex formation; actives 0.031% (n = 340,000); Q14974; active = rising FRET ratio curve, often small or poorly fitted; inconclusive = mostly compound fluorescence or quenching in the first reads; inactive = flat curves in all reads;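 also: potency is read from the fitted curve at half-maximal effect; 0% = DMSO wells and 100% = buffer wells lacking importin beta; nearly all actives have a fitted effect of over 15% in size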
Target sequence (Q14974 whole entry, looked up): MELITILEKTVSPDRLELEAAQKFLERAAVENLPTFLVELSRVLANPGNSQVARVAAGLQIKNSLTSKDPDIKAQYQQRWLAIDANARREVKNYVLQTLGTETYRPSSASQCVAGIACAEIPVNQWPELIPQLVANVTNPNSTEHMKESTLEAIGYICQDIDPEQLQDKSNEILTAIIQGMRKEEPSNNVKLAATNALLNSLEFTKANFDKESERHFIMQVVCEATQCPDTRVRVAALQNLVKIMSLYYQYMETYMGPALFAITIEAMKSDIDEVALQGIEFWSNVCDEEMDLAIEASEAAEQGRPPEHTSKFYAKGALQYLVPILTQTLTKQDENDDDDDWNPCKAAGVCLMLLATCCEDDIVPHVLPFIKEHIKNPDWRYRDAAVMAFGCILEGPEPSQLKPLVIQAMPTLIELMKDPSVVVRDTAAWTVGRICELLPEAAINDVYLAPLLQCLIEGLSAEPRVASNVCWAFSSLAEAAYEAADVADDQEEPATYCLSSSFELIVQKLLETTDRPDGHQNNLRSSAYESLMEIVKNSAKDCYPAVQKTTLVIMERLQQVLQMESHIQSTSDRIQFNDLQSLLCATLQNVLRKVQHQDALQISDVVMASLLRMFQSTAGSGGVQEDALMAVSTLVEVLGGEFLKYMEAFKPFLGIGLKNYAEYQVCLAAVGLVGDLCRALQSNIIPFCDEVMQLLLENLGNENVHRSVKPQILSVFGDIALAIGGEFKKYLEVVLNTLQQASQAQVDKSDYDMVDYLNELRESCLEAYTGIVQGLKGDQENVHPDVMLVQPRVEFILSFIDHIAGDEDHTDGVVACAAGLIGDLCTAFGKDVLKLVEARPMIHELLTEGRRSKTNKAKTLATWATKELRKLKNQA
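FRET biosensor (snurportin 1 IBB flanked by EYFP and cerulean), 50 nM, with compound 5 min, then 0.125 microM importin beta in PBS, 1 mM DTT, 0.02% Tween-20, 0.1% BSA. CFP/YFP ratio read after 45 min at room temperature; pre-read flags interference.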
GLA inh pH 4.5: alpha-galactosidase A (human) inhibition, pH 4.5; 230,000 tested, under 10 active; purified enzyme, 4-MU-alpha-Gal fluorescence, pH 4.5; P06280; activity change, negative = inhibition, % at 105 µM; AID 1467; inconclusive = small, poorly fitted or top-dose-only inhibition, or a rising curve; inactive = flat fitted curve, though single readings scatter; no compound was filed as active;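 also: 0% = full activity with enzyme and -100% = basal without enzyme; dose as in the result columns while the protocol names 77 µM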
miR-21 FLuc: miR-21 reporter, rising signal. Potency, µM (series often up to 38.3 µM), without a hit: at the top dose reporter change, positive = more light. 340,000 tested, under 10 active. HeLa miR-21 FLuc reporter, luciferase, 48 h; active = well fitted rising curve with a large enough effect; inconclusive = small, poorly fitted or top-dose-only effect; inactive = no such curve, though single readings can be large or run the other way;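 also: % of control where 0% means no effect; miR-21 action dims this reporter so a rising signal means less miR-21 action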
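HeLa miR-21-FLuc reporter line, endogenous miR-21; 2000 cells/well in DMEM/10% FBS; compound titration up to ~40uM final, 48 h, 37 degree Celsius; luciferase detection reagent, 15 min lysis, CCD luminescence.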
* hit, by the source's call; & = joins results of further samples. Some of the compounds tested; rates above refer to the full screens.

What do the screens show for `CC(Sc1ccc(Cl)cc1)C(=O)Nc1ccccc1C(=O)N1CCOCC1` (configuration not stated)?
Rango release inh: 4.4%; Rango complex inh: -0.3%; GLA inh pH 4.5: 11.8; miR-21 FLuc: -0.5%

Results for COc1ccc(C(=O)c2c3ccc([N+](=O)[O-])cc3[n+]([O-])n2CCCN)cc1 ?
Rango release inh: 0.0%; Rango complex inh: -3.0%

How did CC(C)(c1ccccc1)c1ccc(OCCCN2CCNCC2)cc1 do in these assays?
Rango release inh: -0.9%; Rango complex inh: -0.8%; GLA inh pH 4.5: 3.1; miR-21 FLuc: -5.5%

Results for CCc1ccc(NC(=O)CS(=O)CC(=O)NC(C)CCc2ccco2)cc1 (configuration not stated) ?
Rango release inh: 0.2%; Rango complex inh: 4.4%; GLA inh pH 4.5: 0.4; miR-21 FLuc: -8.3%

What do the screens show for `O=C(NCCN1CCOCC1)c1c[nH]c2ccc(S(=O)(=O)N3CCOCC3)cc2c1=O`?
Rango release inh: 4.0%; Rango complex inh: 2.8%; GLA inh pH 4.5: -21.3; miR-21 FLuc: -1.7%

What do the screens show for `Cc1cc(C(=O)N/N=C/c2ccc(-c3ccc([N+](=O)[O-])cc3Cl)o2)n[nH]1`?
Rango release inh: inconclusive; Rango complex inh: inconclusive; miR-21 FLuc: -0.9%

What do the screens show for `Cn1c(=O)[nH]c(=O)c2c1nc(N1CCNCC1)n2CCOc1ccccc1`?
Rango release inh: -4.5%; Rango complex inh: -5.2%

Results for CCn1ccnc1CN(C)C(=O)c1cc(COc2ccc(Cl)cc2OC)on1 ?
Rango release inh: -0.7%; Rango complex inh: -1.7%; miR-21 FLuc: -30.9%

Results for FC(F)(F)c1ccc(C2[C@H]3CN(Cc4cccnc4)[C@H](c4ccccc4)C34CC2(c2ccccc2)C4)cc1 (some centres not stated) ?
Rango release inh: 0.4%; Rango complex inh: -0.6%; GLA inh pH 4.5: 0.3&-1.8; miR-21 FLuc: 10.2%

What do the screens show for `O=C(CCNS(=O)(=O)c1ccc(Br)cc1)NC1CCCCC1`?
Rango release inh: 7.9%; Rango complex inh: 1.2%; GLA inh pH 4.5: 2.5; miR-21 FLuc: -1.2%

How did COc1ccc(Br)cc1CN1CCCCCCC1 do in these assays?
Rango release inh: 1.4%; Rango complex inh: -2.5%; GLA inh pH 4.5: -1.2; miR-21 FLuc: -3.6%

Results for CCOC(=O)[C@@H]1[C@H]2COc3cc(OC)ccc3[C@@H]2N2C(=O)N(c3ccc(C)cc3)C(=O)[C@@]12C ?
Rango release inh: -12.5%; Rango complex inh: -0.9%; miR-21 FLuc: -2.5%

Results for CCS(=O)(=O)N1CCN(c2c(Cl)cccc2[N+](=O)[O-])CC1 ?
Rango release inh: -19.9%; Rango complex inh: -0.8%; GLA inh pH 4.5: -2.8; miR-21 FLuc: -2.3%

Results for O=C(CNc1ccccc1)N/N=C/c1ccc([N+](=O)[O-])cc1 ?
Rango release inh: -25.2%; Rango complex inh: -0.5%; GLA inh pH 4.5: -1.8; miR-21 FLuc: -4.3%

What do the screens show for `CCOc1ccc(-c2cc(C(=O)N3CCN(C)CC3)c3ccccc3n2)cc1`?
Rango release inh: -5.9%; Rango complex inh: 4.1%; GLA inh pH 4.5: 12.4; miR-21 FLuc: -28.9%

Results for Nc1ccc[n+](CC(=O)c2ccccc2)c1 ?
Rango release inh: 14.6%; Rango complex inh: 0.6%; miR-21 FLuc: -0.8%

What do the screens show for `O=C(CSc1ccccn1)N1CCCC(Nc2ccccc2)C1` (configuration not stated)?
Rango release inh: 9.1%; Rango complex inh: -1.7%; miR-21 FLuc: 0.0%

Results for CCOC(=O)c1c(C)nc2sccn12 ?
Rango release inh: 7.4%; Rango complex inh: -2.8%; GLA inh pH 4.5: -1.1; miR-21 FLuc: -4.2%

Results for Cc1cc(NC(=O)c2ccc(Cl)cc2)no1 ?
Rango release inh: -3.6%; Rango complex inh: 0.5%; GLA inh pH 4.5: 4.1; miR-21 FLuc: -36.7%

How did CC(C)(C)C1CCc2sc(-c3nnc(CCl)o3)cc2C1 (configuration not stated) do in these assays?
Rango release inh: 4.4%; Rango complex inh: 6.3%; GLA inh pH 4.5: 3.0; miR-21 FLuc: -8.0%

Results for O=C(CCN1CCN(c2ccccc2)CC1)Nc1nccs1 ?
Rango release inh: -12.4%; Rango complex inh: 2.3%; GLA inh pH 4.5: -1.6; miR-21 FLuc: -3.0%

How did O=c1[nH]c(/C=C\c2cccc(Cl)c2)nc(O)c1[N+](=O)[O-] do in these assays?
Rango release inh: -5.4%; Rango complex inh: 0.1%; miR-21 FLuc: 1.7%

How did Cc1ccccc1CC(=O)N1CCCC(CCC(=O)N2CCN(c3ccccn3)CC2)C1 (configuration not stated) do in these assays?
Rango release inh: -15.1%; Rango complex inh: 0.4%; GLA inh pH 4.5: -3.3; miR-21 FLuc: 15.3%

Results for COc1cc(OC)c(C(=O)OCC(=O)c2cc(C)n(CC3CCCO3)c2C)cc1OC (configuration not stated) ?
Rango release inh: 10.1%; Rango complex inh: inconclusive; GLA inh pH 4.5: 9.7; miR-21 FLuc: -20.8%

What do the screens show for `CCCCC[C@H](O)/C=C/[C@@H]1[C@@H](C/C=C\CCCC(=O)O)[C@@H](O)C[C@H]1O`?
Rango release inh: -9.4%; Rango complex inh: 7.0%; GLA inh pH 4.5: -0.2&2.7; miR-21 FLuc: -19.6%

What do the screens show for `Cc1ccc2nc(C)cc(N/N=C/c3cccnc3)c2c1`?
Rango release inh: 10.2%; Rango complex inh: 0.7%; GLA inh pH 4.5: -2.4; miR-21 FLuc: -0.2%

Results for O=C(NCc1ccc(F)cc1)c1noc2c1CCCC2 ?
Rango release inh: 1.7%; Rango complex inh: 7.0%; GLA inh pH 4.5: 1.2; miR-21 FLuc: -25.8%

What do the screens show for `CCC(C)(C)NC(=O)CN(C(=O)c1snc(C(N)=O)c1N)c1ccc2c(c1)OCO2`?
Rango release inh: -10.9%; Rango complex inh: 3.5%; GLA inh pH 4.5: -10.7; miR-21 FLuc: -9.7%

Results for CC(C)CCNC(=O)C(CC(C)C)N(Cc1ccc2c(c1)OCO2)C(=O)c1snc(C(N)=O)c1N (configuration not stated) ?
Rango release inh: 9.2%; Rango complex inh: 0.1%; GLA inh pH 4.5: -12.3; miR-21 FLuc: 14.3%

Results for Cc1ccc(C(=O)N2CCC3(CC2)Oc2ccc(F)cc2C(=O)C32CC(c3ccccc3)=NO2)s1 (configuration not stated) ?
Rango release inh: -2.0%; Rango complex inh: -2.3%; GLA inh pH 4.5: -7.7; miR-21 FLuc: -0.7%

How did CCN(CC)S(=O)(=O)c1ccc(S(=O)(=O)NCc2cccs2)cc1 do in these assays?
Rango release inh: 20.4%; Rango complex inh: -1.9%; miR-21 FLuc: 1.4%

Results for CCCC(C(=O)NC1CCCC1)N(C(=O)c1snc(C(N)=O)c1N)c1ccc(F)cc1 (configuration not stated) ?
Rango release inh: -11.8%; Rango complex inh: -2.9%; miR-21 FLuc: 2.7%

What do the screens show for `COC(=O)CN(C)C(=O)c1ccc(OC2CCN(S(=O)(=O)N(C)C)CC2)cc1`?
Rango release inh: 4.2%; Rango complex inh: 3.5%; miR-21 FLuc: -18.2%

What do the screens show for `Cc1ccc(S(=O)(=O)c2ccc([N+](=O)[O-])o2)cc1`?
Rango release inh: -6.4%; Rango complex inh: 5.9%

How did CC1CCCN(C(=O)CSc2nnc(-c3ccc(S(=O)(=O)N4CCOCC4)cc3)n2C)C1 (configuration not stated) do in these assays?
Rango release inh: -15.5%; Rango complex inh: -7.3%; GLA inh pH 4.5: 8.8; miR-21 FLuc: 1.8%

What do the screens show for `Cc1cc(C)c2nc(N3CCCC(C(=O)N4CCN(c5ncccn5)CC4)C3)sc2c1` (configuration not stated)?
Rango release inh: -17.1%; Rango complex inh: -1.2%; GLA inh pH 4.5: 10.4; miR-21 FLuc: -1.1%

What do the screens show for `O=C(CC1SC(=Nc2ccccc2)N(CCc2c[nH]c3ccccc23)C1=O)Nc1ccccc1F` (configuration not stated)?
Rango release inh: -7.4%; Rango complex inh: inconclusive; GLA inh pH 4.5: -1.7; miR-21 FLuc: 4.1%

What do the screens show for `Cc1ccc(NS(=O)(=O)c2ccc(NC(=O)C3CC3)cc2)c(C)c1`?
Rango release inh: 8.4%; Rango complex inh: -0.7%; miR-21 FLuc: 15.0%

How did Fc1ccc(-n2c(Cc3ccccc3)nnc2SCc2nc(-c3ccc(Cl)cc3)no2)cc1 do in these assays?
Rango release inh: -8.1%; Rango complex inh: 0.8%; GLA inh pH 4.5: -18.9; miR-21 FLuc: 6.5%

Results for O=C(NCCc1ccccn1)C1CC(=O)N(Cc2ccccc2Cl)C1 (configuration not stated) ?
Rango release inh: -3.5%; Rango complex inh: -0.8%; GLA inh pH 4.5: 5.1; miR-21 FLuc: -3.6%

How did Cc1ccc(S(=O)(=O)CCc2nc3ccccc3n2CCC#N)cc1 do in these assays?
Rango release inh: -12.3%; Rango complex inh: 0.2%; GLA inh pH 4.5: -6.0; miR-21 FLuc: 17.5%

What do the screens show for `CCOC(=O)CNC(=O)c1ccccc1`?
Rango release inh: 6.5%; Rango complex inh: -0.5%; GLA inh pH 4.5: 1.8; miR-21 FLuc: -4.2%

Results for C/C(=C\c1ccccc1)CN1CCN(c2ccccc2)CC1 ?
Rango release inh: 1.9%; Rango complex inh: -1.6%; GLA inh pH 4.5: -4.1; miR-21 FLuc: -9.5%

How did Cc1nc(/C=[N+](\[O-])C(C)(C)/C=N/O)n(O)c1C do in these assays?
Rango release inh: -6.0%; Rango complex inh: 0.0%; GLA inh pH 4.5: -14.0; miR-21 FLuc: -0.8%

What do the screens show for `C#CCNC(=O)C1=C[C@@H](c2coc3ccccc3c2=O)C[C@@H](OCc2ccc(CO)cc2)O1`?
Rango release inh: -9.4%; Rango complex inh: -0.7%; GLA inh pH 4.5: 1.5; miR-21 FLuc: -2.5%

How did CN1CCN(c2cc(N3CCc4ccccc4C3)c(F)cc2[N+](=O)[O-])CC1 do in these assays?
Rango release inh: 27.2%; Rango complex inh: -1.5%; GLA inh pH 4.5: -4.2; miR-21 FLuc: 6.9%

What do the screens show for `Cc1ccc(S(=O)(=O)Nc2cccc(-c3ccc(N4CCCCCC4)nn3)c2)c(C)c1`?
Rango release inh: -2.9%; Rango complex inh: 0.8%; miR-21 FLuc: -46.8%

Results for Nc1ccc2cc3[nH]c4cc(N)ccc4c3nc2c1 ?
Rango release inh: inconclusive; Rango complex inh: inconclusive

What do the screens show for `COc1ccc(C2Nc3ccccc3C(=O)N2c2ccccc2)cc1Cn1cc([N+](=O)[O-])cn1` (configuration not stated)?
Rango release inh: 0.4%; Rango complex inh: inconclusive; GLA inh pH 4.5: -6.6; miR-21 FLuc: -31.5%

What do the screens show for `O=c1[nH]c2cc3c(cc2cc1CN(Cc1ccco1)C(=S)NCC1CCCO1)OCCO3` (configuration not stated)?
Rango release inh: -7.2%; Rango complex inh: 0.9%; GLA inh pH 4.5: 0.9; miR-21 FLuc: -1.7%

How did O=C(CSc1nnc(CN2CCCCC2)n1-c1ccccc1)c1ccc2c(c1)OCO2 do in these assays?
Rango release inh: -7.7%; Rango complex inh: -1.7%; GLA inh pH 4.5: -5.6; miR-21 FLuc: -3.9%

In the list so far, these contain a thiophene ring, fused or not:
How did CC(C)(C)C1CCc2sc(-c3nnc(CCl)o3)cc2C1 (configuration not stated) do in these assays?
Rango release inh: 4.4%; Rango complex inh: 6.3%; GLA inh pH 4.5: 3.0; miR-21 FLuc: -8.0%

Results for Cc1ccc(C(=O)N2CCC3(CC2)Oc2ccc(F)cc2C(=O)C32CC(c3ccccc3)=NO2)s1 (configuration not stated) ?
Rango release inh: -2.0%; Rango complex inh: -2.3%; GLA inh pH 4.5: -7.7; miR-21 FLuc: -0.7%

How did CCN(CC)S(=O)(=O)c1ccc(S(=O)(=O)NCc2cccs2)cc1 do in these assays?
Rango release inh: 20.4%; Rango complex inh: -1.9%; miR-21 FLuc: 1.4%
